SARS PLpro yeast = qHTS of Yeast-based Assay for SARS-CoV PLP; 330,000 compounds, 0.19% hits; Potency, µM (titrated, usually from 32.9 µM), for the others: at the top dose activity, positive = growth rescue; AID 485353, 2010; S. cerevisiae expressing SARS-CoV PLpro, growth rescue; control for the full effect not named in the record; active means well fitted rising curve with a large enough effect; inconclusive means small, poorly fitted or top-dose-only effect; inactive means no such curve, though single readings can be large or run the other way; also: 0% is about no effect; nearly all actives have a fitted effect of over 55% in size; growth read by luminescence after 48 h
NS1 inh = qHTS Assay for Inhibitors of Influenza NS1 Protein Function. AID 2326, 2010. S. cerevisiae slowed by influenza A NS1, growth recovery by OD600. 270,000 compounds, 0.4% hits. Potency, µM (titrated, usually from 46.1 µM), without a hit: at the top dose activity, positive = more growth; active means well fitted rising curve with a large enough effect; inconclusive means small, poorly fitted or top-dose-only effect; inactive means no such curve, though single readings can be large or run the other way; also: nearly all actives have a fitted effect of over 50% in size
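A cell-based growth assay was used: compounds that relieve NS1-induced slow growth of budding yeast raise OD600. Assay medium was yeast nitrogen base with ammonium sulphate and -URA supplement, pH 6.0, with 2% galactose.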
RE007 growth inh = qHTS Assay for Inhibitors of the HIV-1 protein Vpr; S. pombe RE007 Vpr strain, BacTiter-Glo ATP luminescence, 24 h; control for the full effect not named in the record; Potency, µM (highest dose often 92.2 µM), for inactives: at the top dose activity change, negative = less growth; 360,000 compounds, 0.21% hits; AID 651644, 2012; active = well fitted falling curve with a large enough effect; inconclusive = small, poorly fitted or top-dose-only effect; inactive = no such curve, though single readings can be large or run the other way;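 also: % is scaled to controls: 0 for no effect and ±100 for the full control effect; nearly all actives have a fitted effect of over 50% in size; the assay follows cell death caused by Vpr and the record does not say whether a fall means rescue or toxicity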
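Fission yeast RE007 carrying one integrated HIV-1 vpr copy, seeded at OD 0.01 in PMG+AL medium with 23 nL pinned compound. Grown 24 h at 30 degrees; viability read by BacTiter-Glo luminescence after 5 min.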
Cruzain Triton = qHTS Assay for Promiscuous and Specific Inhibitors of Cruzain (with detergent); Cruzipain (Trypanosoma cruzi), P25779; purified cruzain, Z-FR-AMC fluorescence, 0.01% Triton; Potency, µM, without a hit: max response, negative = inhibition, hits mostly inhibitors; 200,000 compounds, 0.43% hits; AID 1478, 2009;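 also: plate controls were neutral wells for no effect and buffer without enzyme for full effect; nearly all actives have a fitted effect of over 40% in size; top concentration of the series not given in the record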
Target sequence (P25779 123-467 limits assumed): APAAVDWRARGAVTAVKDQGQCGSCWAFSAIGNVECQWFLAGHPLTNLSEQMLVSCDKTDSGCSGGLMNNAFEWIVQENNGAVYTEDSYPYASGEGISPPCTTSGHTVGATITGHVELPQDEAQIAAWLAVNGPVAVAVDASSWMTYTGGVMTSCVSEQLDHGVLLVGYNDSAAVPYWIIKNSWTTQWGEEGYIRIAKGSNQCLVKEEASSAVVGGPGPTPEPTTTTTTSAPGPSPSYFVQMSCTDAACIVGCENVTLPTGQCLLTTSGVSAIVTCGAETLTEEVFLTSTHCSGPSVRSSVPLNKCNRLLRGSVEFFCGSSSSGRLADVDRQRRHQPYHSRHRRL
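Read-out: AMC fluorescence (360 nm excitation, 450 nm emission), four reads over 2 min, first-to-third difference used. Conditions: cruzain 1.5 nM, Z-FR-AMC 2 uM, pH 5.5 acetate, 5 mM DTT, 0.01% Triton X-100.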
Lassa entry inh = qHTS for Inhibitors of binding or entry into cells for Lassa Virus; 300,000 compounds, 1.2% hits; AID 540256, 2011; Potency, µM (top dose mostly 37.9 µM), without a hit: at the top dose activity change, negative = inhibition, actives largely listed as inhibitors; Lassa virus pseudotype entry inhibition, cell reporter; control for the full effect not named in the record; active means well fitted inhibition curve with a large enough effect; inconclusive means small, poorly fitted or top-dose-only effect, or effect the other way; inactive means flat fitted curve, though single readings scatter; tested in HEK293 cells; also: % is scaled to controls: 0 for no effect and ±100 for the full control effect; nearly all actives have a fitted effect of over 50% in size; luciferase read-out
Cruzain noTriton = qHTS Assay for Promiscuous and Specific Inhibitors of Cruzain (without detergent). Cruzipain (Trypanosoma cruzi), P25779. purified cruzain, Z-FR-AMC fluorescence, no detergent. Potency, µM, for inactives: max response, negative = inhibition, usual class: inhibitors. 200,000 compounds, 2.3% hits. AID 1476, 2009;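 also: plate controls were enzyme without inhibitor for no effect and buffer without enzyme for full effect; nearly all actives have a fitted effect of over 40% in size; top concentration of the series not given in the record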
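Purified cruzain at 1.5 nM, pre-incubated 15 min with compound at room temperature in 100 mM sodium acetate pH 5.5, 5 mM DTT, 0.00005% Triton X-100. Reaction started with 2 uM Z-FR-AMC; AMC fluorescence increase over 60 s gives rate.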
Marburg entry inh = qHTS for inhibitors of binding or entry into cells for Marburg Virus | 300,000 compounds, 1.8% hits | Potency, µM (doses to about 37.8 µM), inactives show at the highest dose activity change, negative = inhibition, hits mostly inhibitors | Marburg virus pseudotyped entry inhibition, cell reporter; control for the full effect not named in the record; about a third of the inactives were read at about 46 µM; active = well fitted inhibition curve with a large enough effect; inconclusive = small, poorly fitted or top-dose-only effect, or effect the other way; inactive = flat fitted curve, though single readings scatter; tested in HEK293 cells; about a fifth of its hits are not listed in these tables; also: % is scaled to controls: 0 for no effect and ±100 for the full control effect; luciferase read-out
StopGo reporter = High Throughput Screening for Foot and Mouth Disease Virus Antivirals; AID 1159524, 2015; 410,000 compounds, 1.2% hits; Potency, µM (top dose mostly 57.9 µM), inactives show at the top dose signal change, negative = less light; human cells with a luciferase reporter of 2A StopGo recoding; control for the full effect not named in the record; active = well fitted falling curve with a large enough effect; inconclusive = small, poorly fitted or top-dose-only effect; inactive = no such curve, though single readings can be large or run the other way; tested in HEK293T cells; also: % is scaled to controls: 0 for no effect and ±100 for the full control effect; nearly all actives have a fitted effect of over 45% in size; luciferase light after 4 h
The depositor's hits bear a star; ? = inconclusive; nt = no result given; [ ] = another dose, or the depositor's remark. Unless noted, calls follow the shape of the dose curve; as a rule, active = well fitted curve in the direction sought with a large enough effect; inconclusive = small, poorly fitted or top-dose-only effect, or another doubt; inactive = no such curve, though single readings can be large; an effect the other way counts as inactive or inconclusive. Potency is read from the fitted curve at half-maximal effect.

Every second line gives: Marburg entry inh	SARS PLpro yeast	StopGo reporter	NS1 inh	Lassa entry inh	RE007 growth inh	Cruzain noTriton	Cruzain Triton
CCO/N=C(/C)c1c(O)cc(C(C)(C)C)n(-c2ccccc2)c1=O
 : ?	5%	-5%	-29%	3%	4%	4%	-2.5%
CCc1ccc(OCC(=O)N2CCN(CC(=O)Nc3ccccc3Cl)CC2)cc1
 : ?	1%	-12%	nt	0%	10%	nt	nt
CCCCCn1c(=O)[nH]c2c(c1=O)CCC2
 : -21%[46.1 µM]	-4%	34%[activator]	-5%	1%	-8%	7%	5.2%
CCOc1ccc(N2C(=O)CC(Sc3nnnn3-c3ccccc3)C2=O)cc1 (stereo unspecified)
 : ?	-4%	?	nt	-5%	32µM*	nt	nt
Cc1ccccc1CNC(=O)c1ccc2c(c1)N(Cc1ccccc1)CCS2
 : 8.9µM*	nt	16%	nt	nt	nt	-27%	-6.6%
COC(=O)c1cc(COc2ccc3c(c2)oc(=O)c2ccccc23)c(C)o1
 : -19%	-6%	-30%	-6%	1%	-21%	-5%	-3.5%
O=C(Nc1cccc(NC(=O)C2CCCO2)c1)c1ccco1 (stereo unspecified)
 : 6%	-1%	-4%	4%	13%	25%	nt	nt
COc1cc(NC(=O)C2Cc3ccccc3CN2S(C)(=O)=O)cc(OC)c1 (stereo unspecified)
 : 5%	-1%	1%	7%	5%	5%	nt	nt
COc1cc(C(=O)OCC(=O)Nc2ccc(N3CCOCC3)cc2)ccc1OCC(C)C
 : -12%[46.1 µM]	nt	-5%	nt	-2%	-2%	nt	nt
O=C(CSc1cccc2cccnc12)NCc1ccco1
 : 4%	0%	7%	-7%	4%	4%	-1%	4.4%
CCOCCn1c(-c2ccc(OC)cc2)nc2ccccc21
 : nt	-2%	0%	-72%	nt	-8%	1%	2.0%
O=C(COc1ccccc1Cl)NC(=S)Nc1cccc(NC(=O)c2ccccc2Cl)c1
 : -16%	2%	nt	-4%	?	3%	?	-2.3%
Cc1ccc(NC(=O)COC(=O)CC2CC3CCC2C3)cc1S(=O)(=O)N1CCOCC1 (stereo unspecified)
 : -6%	-2%	-20%	nt	20%	10%	nt	nt
Cc1noc(C)c1S(=O)(=O)N1CCC(C(N)=O)CC1
 : nt	?	4%	7%	nt	6%	nt	nt
O=C(COc1ccc(S(=O)(=O)N2CCCC2)cc1)NCc1ccccn1
 : 4%[46.1 µM]	3%	-26%	18%	17%[46.1 µM]	3%	nt	nt
CCN(CC(=O)Nc1c(F)cccc1F)C(=O)CSc1nc(C)cc(C)n1
 : ?	-2%	-4%	-3%	-5%	-14%	nt	nt
O=C(NC1=NCCS1)c1cccc(Br)c1
 : ?	nt	43%[activator]	nt	-22%	2%	nt	nt
O=C(NCc1ccco1)C(=O)NCC1OCCN1S(=O)(=O)c1cc(F)ccc1F (stereo unspecified)
 : 1%[46.1 µM]	0%	3%	1%	11%[46.1 µM]	-18%	nt	nt
O=C(Nc1nc2c(Cl)ccc(Cl)c2s1)C1CC1
 : nt	5%	-20%	-9%	nt	9%	nt	nt
COc1ccc(C2C(C(=O)c3sc(C)nc3C)=C(O)C(=O)N2CCCn2ccnc2)cc1OC (stereo unspecified)
 : 1%	4%	-5%	1.8µM*	18%	15%	4%	0.0%
CCOc1ccc2[nH]c(C)c(CN3CCN(C)CC3)c(=O)c2c1
 : -4%	3%	2%	4%	-16%	-8%[3.69 µM]	-1%	2.2%
CC(C)(C)C(=O)NC1CCN(C(=O)N2CCCC2)CC1
 : 15%	9%	3%	-1%	-6%	2%	-4%	9.6%
COc1ccc(C(=O)CN2CCN(S(=O)(=O)c3cccc([N+](=O)[O-])c3)CC2)cc1
 : -29%[46.1 µM]	-9%	-26%	-9%	0%	-5%	-7%	-4.2%
CC(NC(=O)c1sc2cc([N+](=O)[O-])ccc2c1Cl)C(C)(C)C (stereo unspecified)
 : 4%	-34%	-24%	6%	7%	-16%	-21%	-6.5%
CC(Cl)C(=O)NNc1cccc(Cl)n1 (stereo unspecified)
 : ?	2%	-25%	-1%	0%	17%	-2%	2.7%
COCCSc1ccccc1C(=O)N1CCN(Cc2ccc3c(c2)OCO3)CC1
 : -9%	2%	nt	-8%	0%	5%	-11%	1.7%
Cc1ccccc1C(=O)NC1CCN(C(=O)N(c2ccccc2)c2ccccc2)CC1
 : ?	3%	-28%	-8%	-34%	7%	9%	-1.0%
COC(=O)c1ccccc1-n1c(C)nc2ccccc2c1=O
 : ?	-9%	-4%	1%	4%	6%	10%	-1.2%
CCOC(=O)c1sc(=NC(=O)c2cccc(C)c2)n(C)c1C
 : 7%[46.1 µM]	-2%	73%[activator]	nt	?	-6%	nt	nt
CC(=O)c1c(COC(=O)c2ccc(C)cc2)nc2ccccc2[n+]1[O-]
 : ?	0%	-23%	-5%	0%	6%	nt	nt

Other structures follow.
Every second line gives: Marburg entry inh	SARS PLpro yeast	StopGo reporter	NS1 inh	Lassa entry inh	RE007 growth inh	Cruzain noTriton	Cruzain Triton
CC(CNS(=O)(=O)c1ccc2c(c1)NC(=O)CCS2)c1ccccc1 (stereo unspecified)
 : nt	-4%	17%	1%	nt	5%	nt	nt
Fc1ccc(-[n+]2nc(Nc3ccccc3)sc2-c2cccc(Cl)c2Cl)cc1
 : nt	-4%	-15%	10%	nt	-11%	nt	nt
COc1ccc(C(=O)NNC(=O)C(=O)Nc2cccc3ccccc23)cc1
 : 0%[46.1 µM]	-7%	0%	-36%	?	-19%	nt	nt
CCN1c2ccccc2-c2nc3ccccc3n2C1c1ccccn1 (stereo unspecified)
 : -27%	-12%	?	-148%	11%	5%	1%	?
CCN(CC)S(=O)(=O)c1ccc(N=NC2=C(O)CC(C)(C)CC2=O)cc1
 : 16%	-1%	19%	8%	1%	4%	4%	-7.8%
Cc1cccc(NC(=O)c2c([N+](=O)[O-])cnn2C)c1
 : nt	3%	-2%	7%	nt	-5%	nt	nt
Nc1cc(N)nc(SCC(=O)NC2CCCCCCC2)n1
 : -10%	-1%	-1%	nt	8%	18%	nt	nt
Cc1cc(=O)oc2c(CN3CCCC3)c(O)c(Cl)cc12
 : 16%	0%	8%	?	11%	2%	nt	nt
O=C(Cc1ccc(F)cc1)Nc1nccs1
 : nt	-2%	31%[activator]	22%	nt	11%	nt	nt
CC(C)NC1(C(N)=O)CCNCC1
 : 11%[46.1 µM]	nt	-8%	nt	-5%[46.1 µM]	0%	nt	nt
O=C(c1cc2c(ccc3ccccc32)oc1=O)N1CCN(CCO)CC1
 : nt	4%	-15%	?	nt	-7%	?	?
C1CCN(c2c3c(nc4nnnn24)CCCC3)CC1
 : 23%	-2%	-23%	-8%	-13%	-4%	-9%	-0.5%
Cc1ccccc1N=C1NN=C(c2ccccc2F)CS1
 : 15µM*	-20%	-3%	-15%	?	-2%	-27%	-3.6%
O=C(NS(=O)(=O)Nc1ccc(Cl)cc1)c1c[nH]c2ccccc12
 : nt	13%	14%	-2%	nt	4%	nt	nt
CCN1CCN(S(=O)(=O)c2ccc(Cl)c(C(=O)NCc3nc4ccccc4[nH]3)c2)CC1
 : ?	-2%	-10%	nt	?	-11%	nt	nt
COc1ccc(OCC(=O)N/N=C/c2ccc(OC)c(OC)c2C(=O)O)cc1
 : 18%	-2%	4%	-1%	6%	2%	13%	-6.4%
CCn1c(CN2CCCCCC2=O)nnc1SCc1cnc(-c2ccccc2)s1
 : 0%	2%	-11%	-2%	-21%	-9%	14%	-5.4%
c1coc(CSc2ncnc3c2oc2ccccc23)c1
 : 1%[46.1 µM]	-2%	40%[activator]	-40%	12%	-20%	nt	nt
Cc1[nH]nc2c1C1(CCC3(CC1)OCCO3)C(C#N)=C(N)O2
 : 5%	8%	nt	2%	7%	-6%	1%	6.2%
Cc1ccc(/C=N/NC(=O)c2cc(-c3ccc(C)o3)[nH]n2)cc1
 : ?	-4%	-7%	-6%	?	3%	nt	nt
COc1ccccc1OCC(=O)OCC(=O)Nc1ncc(Cl)cc1Cl
 : -17%[46.1 µM]	-4%	-21%	-8%	-4%	-15%	0%	-4.6%
Cc1ccc(S(=O)(=O)NNC(=O)c2cc([N+](=O)[O-])c(C)c([N+](=O)[O-])c2)cc1
 : -10%	nt	-13%	nt	8%	15%	nt	nt

Single records, from the list above. Values in the order: Marburg entry inh	SARS PLpro yeast	StopGo reporter	NS1 inh	Lassa entry inh	RE007 growth inh	Cruzain noTriton	Cruzain Triton
Record of CC(CNS(=O)(=O)c1ccc2c(c1)NC(=O)CCS2)c1ccccc1 (stereo unspecified) : nt	-4%	17%	1%	nt	5%	nt	nt
Record of CCN1c2ccccc2-c2nc3ccccc3n2C1c1ccccn1 (stereo unspecified) : -27%	-12%	?	-148%	11%	5%	1%	?
Record of Nc1cc(N)nc(SCC(=O)NC2CCCCCCC2)n1 : -10%	-1%	-1%	nt	8%	18%	nt	nt

This is a random part of the collection. Share with any hit: about 4.7%.
